# Compound activity: PubChem BioAssay, National Center for Advancing Translational Sciences (NCATS)
# HEK293 tox: qHTS of GLP-1 Receptor Inverse Agonists: Cytotox Screen | HEK293 cAMP-luciferase reporter cells, luminescence, 24 h | Potency, µM (series often up to 38.3 µM), for the others: at the highest dose activity change, negative = inhibition, hits mostly inhibitors | hit rate 0.13% among 410,000 | AID 624418, 2012;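 also: loss of luciferase light is scored as toxicity; potency is read from the fitted curve at half-maximal effect; % is scaled to controls: 0 for no effect and ±100 for the full control effect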
#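 MLSMR compounds, 24 hr on cells at 37 deg C/5% CO2; luminescence after luciferase reagent (12 min RT). Inhibition counted as the undesired cytotoxic outcome.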
# D3 antag: qHTS of D3 Dopamine Receptor Antagonist: qHTS | D3R cells, DiscoveRx beta-arrestin luminescence, antagonist mode; hits give low values | max response, negative = inhibition, % | hit rate 2.5% among 360,000 | AID 652054, 2013; in the data active = max response below about -50%; inconclusive = no clear call, values can overlap the other calls; also: % is scaled to controls: 0 for no effect and ±100 for the full control effect; mostly tested at two doses, the higher about 12 µM
# Target sequence (P35462 whole entry, looked up): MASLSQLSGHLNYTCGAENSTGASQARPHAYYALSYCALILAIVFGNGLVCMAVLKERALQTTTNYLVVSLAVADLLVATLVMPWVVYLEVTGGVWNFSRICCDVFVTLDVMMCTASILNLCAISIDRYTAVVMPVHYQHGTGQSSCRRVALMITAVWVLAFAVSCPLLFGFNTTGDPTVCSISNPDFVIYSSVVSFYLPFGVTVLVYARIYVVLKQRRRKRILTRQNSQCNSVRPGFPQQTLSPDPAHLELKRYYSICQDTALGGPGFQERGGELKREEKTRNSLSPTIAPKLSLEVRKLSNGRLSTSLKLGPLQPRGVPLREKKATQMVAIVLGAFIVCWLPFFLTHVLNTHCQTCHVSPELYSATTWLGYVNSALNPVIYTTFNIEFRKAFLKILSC
#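 Cells expressing the human receptor were seeded at 1500 cells/well, incubated overnight at 37 degrees C in 5% CO2, then exposed to library compounds with dopamine controls for 90 minutes at 37 degrees C before luminescent detection.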
# TDP-43 yeast inh: qHTS of TDP-43 Inhibitors; hit rate 1.8% among 410,000; Potency, µM (titrated, usually from 46.1 µM), without a hit: at the top dose growth rescue (activation), most hits filed as activators; TDP-43 expressing yeast growth rescue, BacTiter-Glo, 24 h; also: potency is read from the fitted curve at half-maximal effect; % of control where 0% means no effect; nearly all actives have a fitted effect of over 50% in size
#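 Galactose-induced TDP-43 yeast, OD600=0.02, compound pinned; 24 hr, 30 deg C; BacTiter-Glo luminescence for growth. Inhibitors of TDP-43 toxicity read as activators.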
# GLP1R ag: qHTS of GLP-1 Receptor Agonists; HEK293 GLP-1R CRE-luciferase, luminescence, 4-6 h; cells express a hypersensitive GLP-1R form; hit rate 0.007% among 380,000; Potency, µM (highest dose often 45.6 µM), without a hit: top-dose activation, actives largely listed as activators; Glucagon-like peptide 1 receptor (Homo sapiens), P43220; also: potency is read from the fitted curve at half-maximal effect; % of control where 0% means no effect
# Target sequence (P43220 whole entry, looked up): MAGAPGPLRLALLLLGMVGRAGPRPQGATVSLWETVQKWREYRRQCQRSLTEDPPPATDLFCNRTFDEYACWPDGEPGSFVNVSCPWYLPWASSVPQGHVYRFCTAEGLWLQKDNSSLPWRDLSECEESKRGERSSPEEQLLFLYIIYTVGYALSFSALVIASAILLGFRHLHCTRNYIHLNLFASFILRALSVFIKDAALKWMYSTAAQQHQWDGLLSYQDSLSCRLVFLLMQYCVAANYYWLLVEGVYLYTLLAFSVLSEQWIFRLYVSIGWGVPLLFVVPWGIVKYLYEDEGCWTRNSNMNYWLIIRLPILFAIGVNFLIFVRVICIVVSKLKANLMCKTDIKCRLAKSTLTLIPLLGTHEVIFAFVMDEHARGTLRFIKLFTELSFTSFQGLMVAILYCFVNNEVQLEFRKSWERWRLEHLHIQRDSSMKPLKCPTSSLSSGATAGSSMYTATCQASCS
# aSyn yeast inh: qHTS of alpha-syn Inhibitors | Yeast expressing alpha-synuclein, growth rescue, BacTiter-Glo, 24 h | Potency, µM (titrated, usually from 46.1 µM), without a hit: at the top dose growth rescue (activation), usual class: activators | hit rate 0.14% among 370,000; also: potency is read from the fitted curve at half-maximal effect; % of control where 0% means no effect; nearly all actives have a fitted effect of over 65% in size
#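 Readout is rescue of growth in alpha-synuclein-expressing yeast, so inhibitors of toxicity appear as activators. Growth after 24 hr at 30 deg C in galactose medium is quantified by luminescence.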
# GLP1R inv ag: qHTS of GLP-1 Receptor Inverse Agonists (Inhibition Mode); HEK293 GLP-1R CRE-luciferase, luminescence, 24 h; GLP-1R form is constitutively active; Potency, µM (top dose mostly 38.3 µM), without a hit: at the highest dose activity change, negative = inhibition, most hits filed as inhibitors; hit rate 1.6% among 410,000; AID 624417, 2012; also: potency is read from the fitted curve at half-maximal effect; % is scaled to controls: 0 for no effect and ±100 for the full control effect; nearly all actives have a fitted effect of over 55% in size
#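 Assay principle: reduced luminescence from a cAMP-responsive reporter in HEK293 cells co-expressing a constitutively active GLP-1R. Conditions: 24 hr compound incubation, 37 deg C, 5% CO2.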
# KB-V1 cytotox: qHTS assay for MDR1-selective chemotherapeutics: Primary screen using the drug-selected MDR subline cells KB-V1. KB-V1 MDR cells viability, CellTiter-Glo, 72 h. Potency, µM (highest dose often 46.1 µM), for the others: top-dose activity change, negative = cytotoxicity, hits mostly cytotoxic. hit rate 3.4% among 400,000; also: potency is read from the fitted curve at half-maximal effect; % is scaled to controls: 0 for no effect and ±100 for the full control effect; nearly all actives have a fitted effect of over 60% in size
#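 KB-V1, DMEM (no phenol red) + 10% FBS; cpd pin-transferred, titration series; 72 h, 37 degrees C; CellTiter-Glo, luminescence. Data normalized, curve-fit.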
# D3 ag: qHTS of D3 Dopamine Receptor Agonist: qHTS | AID 652048, 2013 | D3R DiscoveRx beta-arrestin cells, luminescence, 90 min | hit rate 0.58% among 410,000 | max activation, % | D(3) dopamine receptor (Homo sapiens), P35462; in the data active = max activation above about 30%; also: 0% is about no effect; mostly tested at two doses, the higher about 12 µM
#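 Agonist mode: compounds and dopamine controls were applied to plated cells for 90 min at 37 degrees C after an overnight attachment at 1500 cells/well. Luminescent read-out followed 30 - 60 minutes at room temperature with DiscoveRx detection reagent.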
# * marks the source's active call; other numbers are inactive results; u = inconclusive; x = no result given; [ ] = dose if it differs, or a comment. Unless noted, calls follow the shape of the dose curve; as a rule, active = well fitted curve in the direction sought with a large enough effect; inconclusive = small, poorly fitted or top-dose-only effect, or another doubt; inactive = no such curve, though single readings can be large; an effect the other way counts as inactive or inconclusive.
nr	Compound	HEK293 tox	D3 antag	TDP-43 yeast inh	GLP1R ag
1	CCn1c(=O)cc(SCC(=O)N2CCN(C3CCCCC3)CC2)c2ccccc21	-19%	-27	-12%	0%
2	Fc1ccc(-c2cc3nc(-c4ccccc4)cc(N4CCOCC4)n3n2)cc1	3%	6	-1%	3%
3	CC1=C(C(=O)Nc2cccnc2)C(c2ccncc2)n2nnnc2N1 (stereo not given)	-20%	24	21%	-8%
4	N#CCC1c2ccccc2CCN1C(=O)Nc1cccc(Cl)c1 (stereo not given)	-11%	-16	-26%	-18%
5	COc1ccccc1CNc1nc2ccccc2c2nc(-c3cccnc3)nn12	-1%	x	14%	x
6	CCOC(=O)N1CCN(CC(=O)Nc2ccc(F)c(F)c2)CC1	-1%	u	-4%	0%
7	CCOC(=O)N1CCN(Cc2nc3cc(NC(=O)C(C)C)ccc3n2CC)CC1	-1%	-9	-4%	7%
8	COc1ccc2cc(C#N)c(N3CCN(Cc4nnnn4CCC(C)C)CC3)nc2c1	9%	23	0%	15%
9	CCC(C)NS(=O)(=O)c1ccc(NC(=O)CCC2CCCCC2)cc1 (stereo not given)	17%	21	8%	1%
10	NS(=O)(=O)c1ccc(NC(=O)c2ccc3nccnc3c2)cc1	17%	7	-5%	9%
11	O=C(Nc1ccccc1Cl)c1ccccc1S(=O)(=O)c1ccccc1[N+](=O)[O-]	-8%	-6	25%	-15%
12	COc1ccc(CCNC(=O)COc2ccc(S(=O)(=O)NC(C)C)cc2Cl)cc1OC	-10%	-6	-1%	13%

nr	aSyn yeast inh	GLP1R inv ag	KB-V1 cytotox	D3 ag
1	-19%	u	u	-30
2	0%	8%	-16%	14
3	-1%	0%	13%	4
4	-2%	-21%	16µM*	-19
5	x	-19%	4%	2
6	7%	-1%	-23%	-13
7	7%	-19%	-3%	-6
8	21%	-15%	u	-8
9	1%	-10%	-13%	-10
10	1%	3%	8%	14
11	4%	2%	-10%	-2
12	-1%	24%	-3%	-4

# The listing continues:
nr	Compound	HEK293 tox	D3 antag	TDP-43 yeast inh	GLP1R ag
13	CCc1ccc2occ(CC(=O)Nc3nnc(C)s3)c2c1	4%	x	-2%	x
14	CCCc1ccc(S(=O)(=O)NCC2CCCN2CC)cc1 (stereo not given)	-7%	-9	-5%	-1%
15	Cn1nnnc1SCCCNCc1ccc(Cl)cc1	1%	x	8%[9.22 µM]	x
16	COc1cc(CC(=O)O)c(C(C)=O)cc1OC	-5%	15	6%	-2%
17	O=C1CN(C(=O)CSc2nc3ccccc3n2CCc2ccccc2)c2ccccc2N1	-19%	-5	-22%	12%
18	COC(=O)c1ccc(NC(=O)C(=O)N2CCCC2)cc1	20%	23	9%	-2%
19	COc1ccc(-c2nc(CS(=O)CC(=O)NCc3ccccc3OC)c(C)o2)cc1 (stereo not given)	9%	x	14%	x
20	C[C@H](NC(=O)c1nc[nH]c1C(=O)N[C@@H](C)c1ccccc1)C(=O)OC(C)(C)C	9%	-12	16%	4%
21	CC1=CCCC(C)(C)C1/C=C/C(C)=N/NC(=O)c1ccncc1 (stereo not given)	3%	-1	25%	5%
22	CCCCN1CNC(=S)N(c2ccccc2OCC)C1	-6%	-3	25%	2%
23	COc1cccc(N(CC(=O)N2CCN(c3ccccc3OC)CC2)S(C)(=O)=O)c1	-13%	-1	3%	-7%
24	O=C(O)/C=C\C(=O)Nc1ccc(F)c(F)c1F	-28%	84	u	-4%

nr	aSyn yeast inh	GLP1R inv ag	KB-V1 cytotox	D3 ag
13	x	8%	-4%	8
14	2%	-25%	-22%	-11
15	x	1%	0%	-14
16	-7%	3%	5%	-5
17	-2%	-4%	-17%	4
18	-5%	8%	-6%	-3
19	x	7%	3%	8
20	6%	u	7%	5
21	1%	-4%	u	-5
22	3%	2%	-15%	4
23	1%	0%	u	0
24	21%	1%	14%	9

# From entry 13 up to 15, as listed above:
nr	Compound	HEK293 tox	D3 antag	TDP-43 yeast inh	GLP1R ag
13	CCc1ccc2occ(CC(=O)Nc3nnc(C)s3)c2c1	4%	x	-2%	x
14	CCCc1ccc(S(=O)(=O)NCC2CCCN2CC)cc1 (stereo not given)	-7%	-9	-5%	-1%
15	Cn1nnnc1SCCCNCc1ccc(Cl)cc1	1%	x	8%[9.22 µM]	x

nr	aSyn yeast inh	GLP1R inv ag	KB-V1 cytotox	D3 ag
13	x	8%	-4%	8
14	2%	-25%	-22%	-11
15	x	1%	0%	-14

# Part of the list above with just GLP1R ag:
entry	canonical_smiles	GLP1R ag
22	CCCCN1CNC(=S)N(c2ccccc2OCC)C1	2%
23	COc1cccc(N(CC(=O)N2CCN(c3ccccc3OC)CC2)S(C)(=O)=O)c1	-7%

# New compounds follow.
nr	Compound	HEK293 tox	D3 antag	TDP-43 yeast inh	GLP1R ag
25	O=C(NCc1cccs1)C1(S(=O)(=O)c2ccccc2)CC=CC1	-5%	-17	u	2%
26	COC(=O)C1=NN(c2ccccc2)C2C(=O)N(c3ccccc3OC)C(=O)C12 (stereo not given)	17%[1.53 µM]	-4	19%	-22%
27	CC(NC(=O)CSc1nc(=O)cc(N)n1-c1ccccc1)c1ccccc1 (stereo not given)	53%[activator]	6	-15%	4%
28	Cc1ccc(-n2c(N)cc(=O)nc2SCC(=O)NC2CCCCC2)cc1C	0%	2	16%	-1%
29	CSc1nnc2c(n1)[nH]c1c(C)cccc12	-7%	-15	-13%	1%
30	C=CCn1c(CCNC(=O)c2cccs2)nnc1SCC(=O)Nc1cccc(Cl)c1C	0%	-24	19%	-6%
31	COc1cc(Cl)c(C)cc1NC(=O)Cn1ncc2c1-c1cc(C)ccc1OC2	4%	x	8%	x
32	COc1ccccc1NC(=O)C1=C(C)Nc2nnnn2C1c1cccc(Br)c1 (stereo not given)	-1%	-1	-1%	-6%
33	O=C(CSc1ncnc2c1cnn2-c1ccc(F)cc1)NC1CCCC1	2%	15	14%	-7%
34	COc1ccc(-c2cc3ccccc3oc2=O)cc1NC(=S)NC(=O)c1ccc2c(c1)OCCO2	1%	77	18%	-1%
35	O=C(CN1CCN(Cc2ccccc2F)C1=O)NCc1ccccc1	3%	x	3%	2%
36	COc1cc(OC)c(OC)cc1/C=N/n1c(C)nnc1C	-1%	21	-6%	13%

nr	aSyn yeast inh	GLP1R inv ag	KB-V1 cytotox	D3 ag
25	2%	-2%	u	0
26	0%	10%	4%	3
27	-1%	28%	u	-3
28	-2%	2%	x	12
29	-1%	57%[activator]	-16%	-16
30	0%	0%	u	3
31	x	-3%	9%	5
32	x	6%	1%	4
33	-9%	18%	u	7
34	0%	8%	6%	5
35	x	-10%	-11%	-5
36	-4%	16%	0%	4

# Further compounds follow:
nr	Compound	HEK293 tox	D3 antag	TDP-43 yeast inh	GLP1R ag
37	CC(C)CC(C(=O)N1CCOCC1)N1Cc2ccccc2C1=O (stereo not given)	0%	8	13%	-3%
38	Clc1cccc(NCc2nnc(SCc3ccccc3Cl)o2)c1	18%	37	13µM*	4%
39	CCN(c1cccc(C)c1)C(C(=O)Nc1ccc(OC)cc1)c1cc2c(cc1[N+](=O)[O-])OCO2 (stereo not given)	9%	22	-13%	5%
40	Cc1ccccc1C1NS(=O)(=O)N=C1N (stereo not given)	-4%	6	-3%	5%
41	COc1ccccc1CNc1nc2ccccc2c2nc(-c3cccc(C)c3)nn12	-2%	x	-7%	x
42	CC(NC(=O)c1ccccc1)C(=O)OCC(=O)c1ccc(Br)cc1 (stereo not given)	-16%	6	7%	-2%
43	COc1ccc(Nc2nc(Cl)nc(NCc3ccco3)n2)c(OC)c1	-4%	19	15%	-5%
44	CCOC(=O)N1CCN(Cc2nc3cc(NC(=O)c4ccc(F)cc4)ccc3n2C(C)C)CC1	-23%	x	17%	x
45	CN1CCN(S(=O)(=O)c2ccc(Br)c3ccccc23)CC1	29%	-8	-4%	9%
46	CS(=O)(=O)N(CC(=O)NC1CC2CCC1C2)c1ccc(Oc2ccccc2)cc1 (stereo not given)	-1%[7.66 µM]	-10	-16%[9.22 µM]	9%
47	CN1CCN(S(=O)(=O)c2cccc(S(=O)(=O)c3cccc(S(=O)(=O)N4CCN(C)CC4)c3)c2)CC1	14%	18	0%	-6%
48	C[C@H](NC(=O)c1nc[nH]c1C(=O)N1CCc2ccccc2C1)C(=O)OC(C)(C)C	3%	-8	-23%	-1%

nr	aSyn yeast inh	GLP1R inv ag	KB-V1 cytotox	D3 ag
37	1%	12%	-6%	2
38	20µM*	0%	u	-1
39	15%	-63%	3%	4
40	2%	0%	0%	0
41	x	11%	x	3
42	2%	2%	43%	3
43	2%	13%	-8%	1
44	x	u	x	-5
45	-2%	u	-12%	-1
46	-1%	-11%[7.66 µM]	u	-6
47	0%	0%	u	1
48	1%	1%	-16%	-15

# (continued)
nr	Compound	HEK293 tox	D3 antag	TDP-43 yeast inh	GLP1R ag
49	Cc1ccc(CNCc2cc3c(C(C)(C)C)nn(-c4ccccc4)c3[nH]c2=O)cc1	u	u	-23%	-2%
50	O=C(Cn1cc([N+](=O)[O-])cn1)Nc1ccccn1	-14%	-19	-13%	-3%
51	CCOc1ccccc1CNC(=O)c1nn(CC)cc1[N+](=O)[O-]	-6%	6	18%	9%
52	Cn1cc(CNC(=O)CC2C(=O)NCCN2CC(C)(C)C)cn1 (stereo not given)	9%	12	-3%	3%
53	CCC(Sc1ccc2nnc(-c3ccc(F)cc3)n2n1)C(=O)OC (stereo not given)	3%	-75*	-35%[inhibitor]	1%
54	COCCNC(=O)CS(=O)Cc1nc(-c2ccc(OC)cc2)oc1C (stereo not given)	5%	-10	1%	4%
55	Fc1cccc(Cc2noc(CN3CCOCC3)n2)c1	12%	0	3%	3%

nr	aSyn yeast inh	GLP1R inv ag	KB-V1 cytotox	D3 ag
49	-21%	u	23µM*	-33
50	1%	15%	19%	-26
51	-1%	17%	u	1
52	1%	-6%	u	-2
53	-1%	0%	-11%	-18
54	12%	-19%	15%	0
55	-6%	21%	1%	0

# The list is partial; rates above refer to the full screens.
